Screening data from PubChem.
TRPML1 inh = qHTS for Inhibitors of the Human Mucolipin Transient Receptor Potential 1 (TRPML1); Mucolipin-1 (Homo sapiens), Q9GZU1; TRPML1-inducible cells, Ca2+ dye fluorescence, FDSS; active compounds read low; inhibition of EC80 agonist-evoked calcium signal; activity change, negative = inhibition, % (test concentration not listed); 0.02% of 390,000 active; in the data active means activity change below about -50%; inconclusive means about -30% to -50%; inactive means above about -30%;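 also: stimulus is agonist 54-4 at its EC80 concentration; % is scaled to controls: 0 for no effect and ±100 for the full control effect; compound concentration not given in the record; the text of the record puts the active cut at -80%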
Target sequence (Q9GZU1 whole entry, looked up): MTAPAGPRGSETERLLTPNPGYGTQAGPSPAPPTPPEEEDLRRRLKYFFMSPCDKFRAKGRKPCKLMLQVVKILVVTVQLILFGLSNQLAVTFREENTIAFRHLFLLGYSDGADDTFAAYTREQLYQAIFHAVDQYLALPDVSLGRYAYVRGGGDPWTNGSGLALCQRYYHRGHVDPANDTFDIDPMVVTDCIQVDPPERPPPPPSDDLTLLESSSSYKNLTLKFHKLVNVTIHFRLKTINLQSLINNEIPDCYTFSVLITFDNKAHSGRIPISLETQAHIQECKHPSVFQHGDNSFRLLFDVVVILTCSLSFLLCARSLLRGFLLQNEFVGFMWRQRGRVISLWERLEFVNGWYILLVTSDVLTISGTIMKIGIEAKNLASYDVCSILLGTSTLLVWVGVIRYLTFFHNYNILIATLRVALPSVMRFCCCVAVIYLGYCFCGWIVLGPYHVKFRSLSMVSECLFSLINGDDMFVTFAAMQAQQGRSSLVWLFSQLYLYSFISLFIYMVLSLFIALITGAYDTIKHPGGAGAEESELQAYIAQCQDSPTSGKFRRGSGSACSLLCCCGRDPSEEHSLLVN
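TRPML1-DL cells, Tet-induced overnight (~16 h, 37 °C) at 1,500 cells/well, were loaded with Ca8 no-wash dye plus quencher for 45-90 min at room temperature. Compounds were pinned during FDSS kinetic reading; agonist 54-4 at EC80 (4 uM final) then added.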
D2 ag = Beta-Arrestin HTS for Positive Allosteric Modulators of the Human D2 Dopamine Receptor: Agonists; 0.084% of 360,000 active; D(2) dopamine receptor (Homo sapiens), P14416; DiscoveRx PathHunter D2 beta-arrestin, luminescence, 90 min; 100% = 57 uM dopamine signal; activation, % (concentration not given with the values); in the data active = activation above about 40%; inconclusive = about 15% to 40%; inactive = below about 15%; also: compound concentration not given in the record; the text of the record calls up to 30% inactive
Target sequence (P14416 whole entry, looked up): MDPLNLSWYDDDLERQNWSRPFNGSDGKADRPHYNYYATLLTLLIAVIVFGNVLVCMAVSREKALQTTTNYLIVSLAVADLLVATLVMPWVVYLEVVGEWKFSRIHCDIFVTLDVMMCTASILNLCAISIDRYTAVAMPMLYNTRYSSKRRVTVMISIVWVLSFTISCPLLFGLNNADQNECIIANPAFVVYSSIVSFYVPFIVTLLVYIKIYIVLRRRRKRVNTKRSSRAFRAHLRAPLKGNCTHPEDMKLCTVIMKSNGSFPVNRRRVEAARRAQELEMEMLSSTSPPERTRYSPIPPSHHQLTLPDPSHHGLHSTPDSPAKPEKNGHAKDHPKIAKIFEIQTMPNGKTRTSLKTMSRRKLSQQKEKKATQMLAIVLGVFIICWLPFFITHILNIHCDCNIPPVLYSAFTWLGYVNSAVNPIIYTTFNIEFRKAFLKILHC
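DiscoveRx PathHunter D2 beta-arrestin cells (2,100/well) attached overnight, then compound-stimulated 90 min at 37 C in HBSS/10 mM HEPES/0.1% Tween-20 buffer; beta-galactosidase complementation read by luminescence after 1 h at ambient temperature. Dopamine 57 uM final (EC100) as control.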
PINK1 expr mod = A Quantitative High throughput Screen to Identify Chemical Modulators of PINK1 Expression | PINK1 immunofluorescence, high-content cytometry, 24 h | Potency, µM (highest dose often 76.6 µM), inactives show top-dose activation (PINK1 increase), actives largely listed as activators | 0.2% of 410,000 active | AID 624263, 2012; active = well fitted activation curve with a large enough effect; inconclusive = small, poorly fitted or top-dose-only effect; inactive = flat fitted curve, though single readings scatter; cell line not stated here;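 also: potency is read from the fitted curve at half-maximal effect; % of control where 0% means no effect; nearly all actives have a fitted effect of over 65% in size; a mitochondrial uncoupler was the plate control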
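Fluorescence from anti-PINK1 antibody, together with nuclear and cell stains, was scanned on a laser-scanning cytometer. Before staining, stable-line cells were incubated 24 hours with compounds at 5 concentrations; primary antibody 12 h at 10 degrees C.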
CtBP-E1A blk = qHTS Assay for Inhibitors of the CtBP/E1A Interaction; CtBP / adenovirus E1A interaction (AlphaScreen); AlphaScreen GST-E1A/His-CtBP binding, 1536-well; active compounds read low; control for the full effect not named in the record; 0.49% of 340,000 active; activity change, % (test concentration not listed); AID 651724, 2012; in the data active means activity change below about -65%; inconclusive means about -30% to -65%; inactive means above about -30%; also: % is scaled to controls: 0 for no effect and ±100 for the full control effect
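Homogeneous bead-based format: GST-tagged E1A captured on glutathione donor beads, His-tagged CtBP on nickel acceptor beads; compounds precede bead addition by 2 h at 37 °C.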
Six1-Eya2 inh = qHTS Assay for Inhibitors of the Six1/Eya2 Interaction; AlphaScreen GST-Six1/His-Eya2 binding, biochemical; active compounds read low; control for the full effect not named in the record; activity change, % (concentration not given with the values); 0.56% of 360,000 active; in the data active = activity change below about -65%; inconclusive = about -30% to -65%; inactive = above about -30%; also: % is scaled to controls: 0 for no effect and ±100 for the full control effect
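AlphaScreen luminescence read after one hour at 37 °C in darkness. Pin-transferred compounds met GST-Six1 and His-Eya2 protein (5X stock 250 nM/500 nM) plus glutathione donor and Ni-chelate acceptor beads (5X, 50 ug/mL).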
TRPML1 agonist = qHTS for Agonists of the Human Mucolipin Transient Receptor Potential 1 (TRPML1); TRPML1-expressing cells, Ca2+ dye fluorescence, FDSS; host cell line not named in the record; reference of the full effect not given here; activation, % (concentration not given with the values); 0.12% of 410,000 active; AID 624414, 2012; in the data active = activation above about 50%; inconclusive = about 30% to 50%; inactive = below about 30%; also: 0% is about no effect; the text of the record puts the active cut at 80%
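Kinetic FDSS Ca2+ read in Tet-induced TRPML1-DL cells (ABD Ca8 dye plus quencher, 45-90 min RT loading): baseline, then compound, then 110 s agonist window; EC80 agonist 54-4 at 4uM final added afterwards for a 110 s antagonist window.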
Starred values were filed as active, the others as inactive; ? = inconclusive; / = no result given; & = joins results of further samples; [ ] = remark or other dose.

#	SMILES	D2 ag	TRPML1 agonist	TRPML1 inh	CtBP-E1A blk	Six1-Eya2 inh	PINK1 expr mod
1	O=C(COC(=O)[C@@H]1CCCN1S(=O)(=O)c1ccc(Cl)cc1)NC12CC3CC(CC(C3)C1)C2	2.4	1.5	67	1	0	-1.1%
2	COCC(C)NCc1cccc2ccccc12 (stereo not drawn)	-1.9	-0.3	-5	/	12	0.4%
3	O=c1[nH]cnc2ccsc12	-5.1	-0.1	17	/	1	0.4%
4	Cc1ccc2nc(/C(C#N)=C/c3ccccc3C(=O)O)[nH]c2c1	13	0.7	-1	0	1	1.2%
5	COc1ccc(C(=O)Nc2nc3ccccc3[nH]2)cc1	-2.2	0.1	-12	18	2	1.1%
6	Cc1ccc(C)c(S(=O)(=O)Nc2cc3c4c(c2)CC(=O)N4CCC3)c1	-0.9	-0.7	3	-24	-1	0.1%
7	Cc1cccc(NC(=O)NNC(=O)c2ccccn2)c1	5.3	0.4	28	/	?	0.7%
8	O=C(Nc1nc(-c2ccccc2)cs1)C1CCCCN1S(=O)(=O)c1ccc(Cl)cc1 (stereo not drawn)	0.6	1.1	-8	-8	-11	-1.9%[38.3 µM]
9	Cc1nn(C)c(C)c1/C=C1/SC(=S)NC1=O	-4.1	-0.2	-12	-12	-3	3.5%
10	COc1cc2c(c(OC)c1OC)CCc1cnoc1-2	-3.1	-0.4	-4	/	3	2.6%
11	O=C(Nc1ccnn1C1CCN(C2CCC2)CC1)c1ccccc1Cl	-4.4	-0.2	46	7	9	1.4%
12	CCOc1ccc(Oc2cc(N)cc([N+](=O)[O-])c2)cc1	1.6	0.6	0	3	-9	24%
13	Cn1cccc1C(=O)N1CCN(S(=O)(=O)c2ccccc2)CC1	-3.4	-0.3	-4	9	-5	-2.8%
14	COC(=O)CCNC(=O)N1CCN(c2nnc(C)c3c(C)n(-c4ccc(Cl)cc4)nc23)CC1	/	1.0	-1	/	/	-0.6%
15	CC1(c2ccco2)NC(=O)NC1=O (stereo not drawn)	-2.7	-0.9	3	10	0	-1.0%
16	CCOc1c(C(=O)CC)cc2c(C)cc(=O)oc2c1C	-1.7	-0.3	-9	-3	0	1.6%
17	COc1ccc2oc(C(=O)Nc3nnc(C)s3)c(C)c2c1	-5.4	0.3	5	6	-9	12%
18	Cc1ncc(C(=O)O)c(C(=O)O)c1N	7.5	-0.6	4	/	-4	0.3%
19	O=C(C1CCN(c2nnc(N3CCCC3=O)s2)CC1)N1CCN(c2cccc(C(F)(F)F)c2)CC1	2.6	1.1	60	5	3	1.8%
20	Cc1ccc(C)n1NC(=O)c1ccc([N+](=O)[O-])cc1	-1.2	1.0	0	-10	-7	0.9%
21	CN=C(Nc1ccc(Cl)cc1)c1cccc(C(F)(F)F)c1	-0.8	0.6	24	-14	3	7.0%
22	CCC1CCCCN1C(=O)NC(=O)c1ccccc1 (stereo not drawn)	-2.6	-0.4	2	1	5	0.1%
23	CCn1c2ccccc2c2cc(NC(=O)COc3ccccc3OC)ccc21	-0.1	1.6	-15	11	2	?
24	COC1CCN(C(=O)C2CCC(=O)N(C3CCCCCC3)C2)CC1 (stereo not drawn)	3.1	-1.2	-7	1	1	-0.4%
25	CC(=O)Nc1ccc(S(=O)(=O)N2CCN(C(=O)c3ncoc3-c3cccc(F)c3)CC2)cc1	4.9	-0.4	-15	1	3	0.0%
26	CC(=O)Nc1ccc(Nc2ncc([N+](=O)[O-])c(Nc3ccc(NC(C)=O)cc3)n2)cc1	-5.0	-0.4	53	-3	-7	0.4%
27	CCOC(=O)C1(CCOc2ccccc2)CCN(Cc2ccc(COC)o2)CC1	-2.3	-0.7	3	0	5	-1.7%
28	COc1ccc(CNC(=O)c2sc(=O)n(Cc3ccccc3C)c2C)cc1	3.5	15	/	-8	-19	0.4%
29	CC(C)(C)NC(=O)C(c1ccccc1F)N(Cc1ccco1)C(=O)c1csnn1 (stereo not drawn)	-2.3	-0.2	-9	0	5	-2.7%
30	Cc1ccc(C)c(-n2c(SCC(=O)N3CCCC3)nnc2-c2ccccn2)c1	-2.6	0.8	52	-8	-9	-1.0%
31	COc1ccc(C(C(=O)NC2CCCC2)N(Cc2cccnc2)C(=O)Cc2cccs2)c(OC)c1 (stereo not drawn)	-0.1	-0.4	6	4	-4	-0.1%
32	COCc1ccc(CN2CCCC(CO)(Cc3cccc(OC)c3)C2)o1 (stereo not drawn)	-4.9	0.0	-5	/	0	-1.0%
33	COc1ccc(C(=O)Nc2ccc(NC(=O)C(C)C)nc2)cc1	-0.7	-0.5	-5	0	-1	1.7%
34	CCN(CC)C(=O)Cn1c(=O)n(-c2ccccc2)c(=O)n1CC(=O)N(CC)CC	-3.6	0.1	-8	9	2	/
35	CCN(CC)C(=S)Nc1ccc(OC)cc1	-2.3	0.2	19	0	0	1.8%
36	O=c1c2cc3c(cc2[nH]c(=S)n1CCN1CCOCC1)OCO3	1.0	-0.2	-15	1	2	-2.5%
37	O=C1/C(=C/c2cccc(F)c2)CSc2sccc21	-3.7	1.9	28	18	13	-0.2%
38	Cc1cc(C)c2c(CN3CCCCC3C)cc(=O)oc2c1 (stereo not drawn)	-5.5	0.4	9	3	10	5.3%
39	O=C(c1ccc(-n2cncn2)c([N+](=O)[O-])c1)N1CCN(c2cccc(Cl)c2)CC1	1.3	1.1	0	2	-7	-1.2%
40	CCN(CC)C(=O)N1CCN(S(=O)(=O)c2ccccc2)CC1	0.7	1.4	-4	-23	2	-0.9%
41	COc1ccc(OC)c(-c2cc(C(=O)NC3CCCC3)c3ccccc3n2)c1	-5.9	1.6	-9	10	-3	1.5%
42	COc1ccc(O)c(C(=O)CC(=O)c2ccccc2C)c1	-1.2	1.1	-12	-7	-8	6.4%
43	O=C(CCc1ccccc1Cl)N1CCN(S(=O)(=O)c2ccccc2)CC1	-1.6	-0.8	-14	/	6	0.9%
44	O=C(Nc1nc2ccccc2s1)c1cc2c(s1)-c1ccccc1OC2	-0.7	0.0	23	14	7	-1.2%
45	O=C(CN1C(=O)COc2ccc(S(=O)(=O)N3CCCC3)cc21)N1CCN(c2ccc(F)cc2)CC1	/	1.4	-1	/	/	-0.5%
46	COc1cccc(NC(=O)C2CCCN2S(=O)(=O)c2ccc3c(c2)C(C)(C)C(=O)N3C)c1 (stereo not drawn)	-3.0	-1.0&1.0	12&-19	2	0	3.1%&-0.1%
47	O=C1CCC(C(=O)Nc2cccc(Br)c2)N1 (stereo not drawn)	-3.9	0.1	3	3	4	0.3%
48	C#CCn1c(=NC(=O)c2ccc(Br)s2)sc2cccc(OC)c21	-2.8	1.0	11	3	9	0.8%
49	Cc1cc(C)c(C)c(S(=O)(=O)Nc2ccc(O)cc2)c1C	4.5	-0.7	1	1	-11	11%
50	CCOC(=O)c1c(C)[nH]c(C(=O)OCc2ccccc2F)c1C	9.3	3.7	-28	-2	-2	6.8%

The results go on:
#	SMILES	D2 ag	TRPML1 agonist	TRPML1 inh	CtBP-E1A blk	Six1-Eya2 inh	PINK1 expr mod
51	CC(NC(=O)C(=O)NN=C1CCCCCCC1)c1ccccc1 (stereo not drawn)	0.1	-0.6	-5	2	3	-1.6%
52	CSc1ccc(CCNC(=O)C2CCCN(S(=O)(=O)N3CCOCC3)C2)cc1 (stereo not drawn)	3.7	1.2	23	/	1	0.3%
53	Cc1ccccc1C(=O)NC1CCN(Cc2nnnn2Cc2ccc(F)cc2)CC1	-3.3	-0.7	-10	13	2	6.2%[38.3 µM]
54	O=C(c1ccc(Cl)c(Cl)c1)N1CCC(=O)N(C(COCc2cccc(Cl)c2)Cc2ccccc2)CC1 (stereo not drawn)	2.6	0.5	26	/	5	2.3%
55	O=C(c1ccccc1)N(Cc1nc2ccccc2c(=O)[nH]1)C1CCCCC1	-8.7	0.8	-15	-8	3	-1.7%
56	COc1ccc(-c2cc(C(=O)Nc3c(C)n(C)n(-c4ccccc4)c3=O)c3ccccc3n2)c(OC)c1	-3.4	-1.6	-7	-2	0	0.0%
57	Cn1c(SCC#N)nnc1-c1cccnc1	-3.0	-0.7	14	5	-1	1.1%
58	CCN(CC(=O)Nc1ccc(OC)cc1)C(=O)c1ccc2c(c1)NC(=O)C(C)S2 (stereo not drawn)	-0.3	-0.5	-2	8	0	2.7%
59	CCc1cc(C(=O)N2CCN(C(=O)c3ccco3)CC2)sc1C	1.1	0.9	-15	0	1	-6.2%
60	COCCn1c(SCC(=O)Nc2ccc3[nH]c(=O)[nH]c3c2)nc2ccccc2c1=O	-3.9	-0.2	16	-6	-8	-1.0%
61	O=C(COC(=O)c1ccccc1NCc1ccco1)Nc1ccc2c(c1)OCO2	-2.4	0.4	33	0	4	14%
62	COc1ccc(-c2csc(-c3[nH]cnc3N)n2)cc1	-0.2	-0.7	-10	-14	-18	5.9%
63	Cc1nc(C(=O)O)cc2c1[nH]c1ccccc12	-4.1	/	/	-19	-12	1.4%
64	COc1ccc(/C=C/C(=O)O)cc1S(=O)(=O)NCc1ccccc1	-0.7	0.2	-13	-1	5	0.1%
65	O=C(c1cc(COc2c(F)cccc2F)on1)N1CCC(c2ccccc2Cl)C1 (stereo not drawn)	-2.0	1.5	12	6	8	-0.8%
66	CCOC(=O)c1c2c(n(Cc3ccccc3)c1C)C(=O)C(=O)c1ccccc1-2	?	0.6	?	-79*	?	-5.7%
67	Cc1ccc(C(=O)NNC(=O)c2n[nH]c(=O)c3ccccc23)cc1C	-2.6	0.1	4	-13	-5	-1.4%
68	C=CCn1c(NCc2ccccc2)nc2ccccc21	-3.8	0.8	6	-9	1	-1.7%
69	Cc1cc(C)cc(-n2ccnc2SCC(=O)Nc2nnc(C)s2)c1	/	0.5	10	/	/	3.1%
70	COc1cc(C(CC(=O)N2CCN(c3ccccc3)CC2)c2c(OC)cc(OC)c3ccc(=O)oc23)cc(OC)c1OC (stereo not drawn)	0.3	1.9&-0.7	33&-9	-18	-12	-1.1%
71	Cc1ccc(NC(=O)COC(=O)CNC(=O)c2ccc(Br)cc2)c(C)c1	-1.8	6.5	-10	5	4	-0.5%
72	Cc1c(/C=N/NC(N)=O)c2ccccn2c1C(=O)c1ccncc1	-0.9	1.8	-7	?	-1	-0.5%
